# Bioassay records as filed in PubChem BioAssay.
# Rango-impB inh: prevents formation of the Rango-importin beta complex; hit rate 0.031% among 340,000; Rango CFP/YFP FRET sensor + importin beta, 45 min; Potency, µM (series often up to 92.2 µM), inactives show top-dose inhibition of complex formation; active = rising FRET ratio curve, often small or poorly fitted; inconclusive = mostly compound fluorescence or quenching in the first reads; inactive = flat curves in all reads;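 also: potency is read from the fitted curve at half-maximal effect; 0% = DMSO wells and 100% = buffer wells lacking importin beta; nearly all actives have a fitted effect of over 15% in size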
# Target sequence (Q14974 whole entry, looked up): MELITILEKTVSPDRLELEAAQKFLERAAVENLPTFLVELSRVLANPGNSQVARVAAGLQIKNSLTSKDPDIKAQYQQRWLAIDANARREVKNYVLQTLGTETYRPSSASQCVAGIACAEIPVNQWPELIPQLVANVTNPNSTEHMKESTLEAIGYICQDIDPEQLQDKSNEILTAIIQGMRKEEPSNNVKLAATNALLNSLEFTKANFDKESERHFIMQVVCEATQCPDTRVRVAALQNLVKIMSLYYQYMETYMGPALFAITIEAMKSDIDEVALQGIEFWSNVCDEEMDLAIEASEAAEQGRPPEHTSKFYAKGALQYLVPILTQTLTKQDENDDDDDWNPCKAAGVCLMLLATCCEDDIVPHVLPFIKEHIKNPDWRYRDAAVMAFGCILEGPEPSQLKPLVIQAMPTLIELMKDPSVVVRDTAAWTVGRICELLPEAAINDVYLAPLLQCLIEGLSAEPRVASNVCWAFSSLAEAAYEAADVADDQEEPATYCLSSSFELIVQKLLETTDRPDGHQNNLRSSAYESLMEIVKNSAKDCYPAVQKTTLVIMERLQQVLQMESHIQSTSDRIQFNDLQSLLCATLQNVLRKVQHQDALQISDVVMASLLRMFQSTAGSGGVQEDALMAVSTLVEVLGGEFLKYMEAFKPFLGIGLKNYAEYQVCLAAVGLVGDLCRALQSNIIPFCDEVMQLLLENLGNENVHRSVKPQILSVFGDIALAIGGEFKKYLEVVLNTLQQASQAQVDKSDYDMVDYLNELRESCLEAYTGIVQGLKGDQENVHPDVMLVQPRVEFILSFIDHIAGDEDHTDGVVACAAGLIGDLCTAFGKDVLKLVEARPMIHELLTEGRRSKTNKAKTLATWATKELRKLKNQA
#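 FRET biosensor (snurportin 1 IBB flanked by EYFP and cerulean), 50 nM, with compound 5 min, then 0.125 microM importin beta in PBS, 1 mM DTT, 0.02% Tween-20, 0.1% BSA. CFP/YFP ratio read after 45 min at room temperature; pre-read flags interference.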
# miR-21 reporter: miR-21 reporter, rising signal; HeLa miR-21 FLuc reporter, luciferase, 48 h; Potency, µM (highest dose often 38.3 µM), inactives show at the highest dose reporter change, positive = more light; 340,000 tested, under 10 active; active = well fitted rising curve with a large enough effect; inconclusive = small, poorly fitted or top-dose-only effect; inactive = no such curve, though single readings can be large or run the other way;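 also: % of control where 0% means no effect; miR-21 action dims this reporter so a rising signal means less miR-21 action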
#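 HeLa cells endogenously expressing miR-21, stably carrying CMV-driven firefly luciferase with a downstream miR-21 binding site, 2000 cells/well. Titrations up to approximately 40 uM, 48 hours; luciferase luminescence read.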
# GLA inh pH 4.5: alpha-galactosidase A (human) inhibition, pH 4.5; P06280; purified enzyme, 4-MU-alpha-Gal fluorescence, pH 4.5; activity change, negative = inhibition, % at 105 µM; 230,000 tested, under 10 active; AID 1467; inconclusive = small, poorly fitted or top-dose-only inhibition, or a rising curve; inactive = flat fitted curve, though single readings scatter; no compound was filed as active;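 also: 0% = full activity with enzyme and -100% = basal without enzyme; dose as in the result columns while the protocol names 77 µM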
# Rango dissoc inh: prevents RanGTP from dissociating the Rango-importin beta complex; O95149+P62826; Biochemical FRET Rango-importin beta, RanGTP-induced dissociation; Potency, µM (top dose mostly 46.1 µM), for the others: top-dose activity change, negative = inhibition; hit rate 0.071% among 340,000; active means falling FRET ratio curve, often poorly fitted, with flat reads before Ran was added; inconclusive means other falling curves, or compound fluorescence or quenching; inactive means flat or rising ratio curve;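 also: potency is read from the fitted curve at half-maximal effect; % of control where 0% means no effect; nearly all actives have a fitted effect of over 45% in size; -100% = wells without RanGTP and RCC1; the record marks most hits as doubtful in a second field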
#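 Rango FRET biosensor (snurportin-1 IBB flanked by N-terminal EYFP and C-terminal CFP10) at 0.1 uM, with 0.25 uM importin beta in PBS, 1mM DTT, 0.02% Tween-20, 0.1% BSA. 0.6 uM Ran, 2mM GTP and 0.2 uM RCC1 were then added for 45 min at room temperature. Inhibition read as loss of FRET rise.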
# * marks the source's active call; other numbers are inactive results; ? = inconclusive; . = no result given; & = joins results of further samples. This is a subset, so the mix of outcomes need not match the whole.
miR-21 reporter	Rango-impB inh	SMILES	Rango dissoc inh	GLA inh pH 4.5
0%	-2.3%	Cc1ccc(N2C(=O)c3ccc(C(=O)N4CCN(Cc5ccccc5)CC4)cc3C2=O)cc1	6%	-3
.	-0.6%	CCN(CC(=O)NCc1cccs1)C(=O)CN(C)S(=O)(=O)c1ccc(C)cc1	-4%	.
0%	-0.6%	COc1ccc(CNC(=O)CCCn2nc(C)n3ccnc3c2=O)cc1	-2%	.
-1%	0.4%	CC12C(=O)N(c3ccccn3)C(=O)C1C1C=CC2C1 (centres undefined)	40%	-8
12%	-2.5%	CCN1CCN(C(=O)c2cc(COc3ccc(F)cc3F)on2)[C@@H](C)C1=O	-6%	.
-1%	-1.1%	COc1ccc(CCNC(=O)c2cc(S(=O)(=O)N3CCCCC3)c[nH]2)cc1OC	-8%	.
-16%	-4.1%	CCc1c(O)cc2n(c1=O)-c1ccccc1C2(C)C	-7%	-2
-1%	-0.8%	C#CC[N+]1(CC#Cc2ccc(C)cc2)CCCCC1	-4%	-2
2%&1%	3.7%	Cn1c(=O)n(C)c2cc(S(=O)(=O)Nc3ccccc3C(=O)O)ccc21	-6%	.
-1%	-0.3%	CCOC(=O)N1CCN(S(=O)(=O)c2ccc3[nH]c(=O)sc3c2)CC1	0%	-6
0%	-1.5%	CCS(=O)(=O)N1CCC(C(=O)NCc2ccco2)CC1	10%	9
-6%	-0.8%	O=C(CNC(=O)c1cccc(Br)c1)N/N=C/c1cccnc1	9%	.
-3%	-4.6%	CCN(CC)C(=O)C1=C(C)NC(=O)NC1c1c(F)cccc1Cl (centres undefined)	-4%	1
.	-1.2%	CC(C(=O)Nc1cc(C(F)(F)F)ccc1N1CCOCC1)N1C(=O)C2CCCCC2C1=O (centres undefined)	22%	.
-13%	1.8%	COC(=O)c1ccc(CSc2nc3c(cnn3-c3ccc(C)cc3)c(=O)[nH]2)o1	5%	2
18%	1.2%	CCN(Cc1ccc(C#CCCO)cc1)CC1CCCN(CCc2cccc(OC)c2)C1 (centres undefined)	1%	.
-25%	-0.3%	COc1ccc(/C=C/C(=O)c2ccoc2)cc1	-5%	-5
0%	3.4%	CC1CCN(C2CCN(S(=O)(=O)c3ccc(F)cc3)CC2)CC1	-3%	4
?	.	O=C(OCn1ncc(Cl)c(Cl)c1=O)c1ccc(F)cc1	.	-1
-9%	-0.1%	COc1cc(OC)cc(N(C(=O)c2ccco2)C(C(=O)NC2CCCC2)c2ccc(N3CCOCC3)cc2)c1 (centres undefined)	-3%	.
.	-4.4%	CC(=O)c1cccc(NC(=O)C(C)OC(=O)c2ccc3ncsc3c2)c1 (centres undefined)	0%	.
0%	?	O=C(O)CC(C(=O)O)N1C(=O)/C(=C/C=C/c2ccco2)SC1=S (centres undefined)	-25%	-2
-18%	-0.4%	Cn1nccc1C(=O)Oc1ccc(/C=N/NC(=O)c2ccccc2O)cc1	-13%	2
.	-0.1%	N#CCCN(C(=O)COC(=O)COc1ccccc1Cc1ccccc1)c1ccccc1	8%	.

# 12 compounds already listed, sorted by length of the SMILES, high to low:
miR-21 reporter	Rango-impB inh	SMILES	Rango dissoc inh	GLA inh pH 4.5
-9%	-0.1%	COc1cc(OC)cc(N(C(=O)c2ccco2)C(C(=O)NC2CCCC2)c2ccc(N3CCOCC3)cc2)c1 (centres undefined)	-3%	.
.	-1.2%	CC(C(=O)Nc1cc(C(F)(F)F)ccc1N1CCOCC1)N1C(=O)C2CCCCC2C1=O (centres undefined)	22%	.
-13%	1.8%	COC(=O)c1ccc(CSc2nc3c(cnn3-c3ccc(C)cc3)c(=O)[nH]2)o1	5%	2
.	-0.1%	N#CCCN(C(=O)COC(=O)COc1ccccc1Cc1ccccc1)c1ccccc1	8%	.
0%	?	O=C(O)CC(C(=O)O)N1C(=O)/C(=C/C=C/c2ccco2)SC1=S (centres undefined)	-25%	-2
.	-4.4%	CC(=O)c1cccc(NC(=O)C(C)OC(=O)c2ccc3ncsc3c2)c1 (centres undefined)	0%	.
-18%	-0.4%	Cn1nccc1C(=O)Oc1ccc(/C=N/NC(=O)c2ccccc2O)cc1	-13%	2
-3%	-4.6%	CCN(CC)C(=O)C1=C(C)NC(=O)NC1c1c(F)cccc1Cl (centres undefined)	-4%	1
-6%	-0.8%	O=C(CNC(=O)c1cccc(Br)c1)N/N=C/c1cccnc1	9%	.
?	.	O=C(OCn1ncc(Cl)c(Cl)c1=O)c1ccc(F)cc1	.	-1
0%	-1.5%	CCS(=O)(=O)N1CCC(C(=O)NCc2ccco2)CC1	10%	9
-25%	-0.3%	COc1ccc(/C=C/C(=O)c2ccoc2)cc1	-5%	-5

# Later entries.
miR-21 reporter	Rango-impB inh	SMILES	Rango dissoc inh	GLA inh pH 4.5
26%	0.8%	O=C(CNS(=O)(=O)c1ccc([N+](=O)[O-])cc1)N/N=C/c1ccc(O)cc1O	4%	.
7%	-2.5%	COc1cc2c(cc1O)CC[n+]1cc3c(OC)c(OC)ccc3cc1-2	3%	-12
.	6.4%	COc1ccc(C(=O)CN2C(=O)NC3(CCCCCC3)C2=O)cc1	?	.
?	-0.5%	CCc1ccc(NC(=O)c2cnn3ccccc23)cc1	1%	-7
0%	-0.1%	CCCNC(=O)c1ccc(N2CCC3(CC2)CC(c2ccccc2)=NO3)c(NC(=O)c2ccc(Br)cc2)c1	-11%	.
-5%	0.2%	Cc1ccc(-c2nc(C)sc2CC(=O)OCC(=O)Nc2c(F)cccc2F)cc1	-3%	6
-9%	-0.7%	COc1ccc(/C=N/N2CCOCC2)cc1Cn1nc(C)c([N+](=O)[O-])c1C	-8%	-4
.	-4.5%	CC(C)c1nc(SCC(=O)N2CCCC2)c2c(=O)n(C)c(=O)n(C)c2n1	22%	.
-4%	-0.2%	COc1ccc2c(c1)cc1n2CCN=C1NCCO	7%	0
-9%	2.5%	CCCCCc1nc2c(C#N)c(-c3ccc(Cl)cc3)ccn2n1	7%	4
-7%	0.2%	C1CCCCCC2(CCCCC1)OCC(CN1CCOCC1)O2 (centres undefined)	3%	5
-7%	-3.3%	Cc1ccc(SCCC(=O)Nc2ccccc2C(=O)NC(C)C)cc1	4%	-1
0%	4.0%	COc1ccc(CNC(=O)/C=C/C(=O)O)cc1OC	5%	2
.	4.6%	O=C(COC(=O)COc1cccc(C(F)(F)F)c1)NC1CCS(=O)(=O)C1 (centres undefined)	-3%	.
11%	-0.1%	c1ccc(C(NCCNC(c2ccccc2)c2ccccc2)c2ccccc2)cc1	-9%	-11
-9%	1.5%	COc1ccc(OC)c(NC(=O)C2CCCN(S(=O)(=O)c3c(C)noc3C)C2)c1 (centres undefined)	-1%	5
13%	0.9%	CCOc1ccc(/C=N/NC(=S)Nc2c(C)cccc2C)cc1	-3%	3
18%	-2.3%	O=C(CSc1nnnn1-c1ccc(O)cc1)Nc1cccc(S(=O)(=O)N2CCCC2)c1	-10%	6
2%	1.5%	CC(C)C1COC(c2cccn2Cc2ccccc2Cl)=N1 (centres undefined)	6%	-2
-2%	?	COCCNC(=O)C(=O)Nc1cc2c3c(c1)CCC(=O)N3CCC2	?	.
-24%	1.2%	CC(=O)c1ccc(N2CCN(S(=O)(=O)c3ccc4c(c3)NC(=O)CC(=O)N4)CC2)cc1	-8%	.
17%	-0.4%	COc1ccc(-c2nc(-c3ccccc3)c(-c3cccs3)[nH]2)cc1OC	0%	-4
0%	-4.8%	CCCCCCCc1nn2c(=O)cc(O)nc2s1	-12%	1
4%	?	CCCCCn1c(=NC(C)=O)c(C#N)cc2c(=O)n3ccccc3nc21	?	?

# The closing two compounds of the part above open the next one.
miR-21 reporter	Rango-impB inh	SMILES	Rango dissoc inh	GLA inh pH 4.5
0%	-4.8%	CCCCCCCc1nn2c(=O)cc(O)nc2s1	-12%	1
4%	?	CCCCCn1c(=NC(C)=O)c(C#N)cc2c(=O)n3ccccc3nc21	?	?
6%	2.7%	O=C(C1CCN(S(=O)(=O)c2cccc3nsnc23)CC1)N1CCc2ccccc2C1	7%	-4
-4%	-1.9%	O=C(c1ccc(-n2nc(C(F)(F)F)c3c2CCCC3)cc1)N1CCOCC1	9%	-27
1%	-1.5%	O=C1C(C2=NC(c3ccccn3)C3C(=O)N(c4ccc(Cl)cc4Cl)C(=O)C23)=C(O)c2ccccc21 (centres undefined)	-7%	-8
0%	-4.5%	COc1cccc(N2CC(C)Cn3c2nc2c3c(=O)n(CCN3CCOCC3)c(=O)n2C)c1 (centres undefined)	-7%	7
-44%	-0.6%	COc1ccc(NC(=O)Nc2nnc(CC(=O)NCc3ccccc3)s2)cc1	0%	12
9%	3.0%	COc1cccc(CNCc2ccc(OC)cc2OC)c1	6%	.
-4%	-3.7%	O=C(Oc1ccc(F)cc1)N1CCOCC1	-10%	.
0%	4.2%	CC(C)(C)NC1=CC(=O)OC12CCCCC2	-4%	9
.	-4.7%	Fc1ccc2cnc(-c3cccnc3)cc2c1	2%	.
-8%	3.8%	C/C(=N/NC(=O)CN1CCN(Cc2ccccc2Cl)CC1)c1cccs1	1%	-8
-5%	?	NS(=O)(=O)c1ccc(-c2ccc(/C=N/NC(=O)c3ccccc3O)o2)cc1	5%	-2
3%	-3.4%	CC(=O)Nc1ccccc1OCC(=O)N(Cc1ccccc1)C(C)C	-8%	-4
8%	-0.2%	Cc1ccc(C2(C)NC(=O)N(CC(=O)NCc3cccc(Cl)c3)C2=O)cc1 (centres undefined)	-13%	.
-4%	0.5%	CCn1c(C)c(C)c2cc(C(=O)NCCCN3CCCC3)ccc21	-4%	.
-47%	-1.6%	CNc1c([N+](=O)[O-])cnn1-c1ccccc1F	-6%	-7
.	1.7%	CC(=O)Nc1cc2c(cc1[N+](=O)[O-])-c1ccc(F)cc1C2	-15%	.
.	-0.3%	CCN(CC)S(=O)(=O)c1ccc(C)c(NC(=O)COC(=O)CN2C(=O)NC(C)(C)C2=O)c1	-17%	.
-1%	1.5%	O=C1CC(c2ccccc2)CC2=C1C(c1ccccn1)Nc1ccccc1N2 (centres undefined)	9%	-4
-9%	-5.3%	O=C(CN1CCc2ccccc2C1)NC1CCCC1	19%	-17
-50%	4.6%	O=C(O)c1cccc(Nc2ncnc3c2cnn3-c2ccccc2)c1	-2%	2
-28%	-2.1%	COc1ccc(OC)c(/C=N/NC(=O)c2[nH]ncc2Br)c1	0%	3
.	-0.4%	CCc1ccc(S(=O)(=O)NCC2(N3CCOCC3)CCCCC2)cc1	11%	.
-3%	5.1%	CCN(CC)CCNC(=O)Cn1c(C)cc2ccccc2c1=O	-5%	7
.	3.2%	Cc1cccnc1NC(=O)c1ccc(S(=O)(=O)N2CCCCCC2)cc1	10%	.
-22%	-5.3%	COc1cc(/C=N/NC(=O)C(Cc2c[nH]c3ccccc23)NC(=O)OCC(C)C)cc([N+](=O)[O-])c1OCc1ccccc1 (centres undefined)	8%	?
1%	0.5%	CC(=O)NC(Cc1cccc(C)c1)C(=O)NC1CCN(S(=O)(=O)c2ccccc2)CC1 (centres undefined)	-1%	.
-8%	-0.5%	CCN1CCN(c2cc(C)c3cc(NC(=S)N(C)Cc4ccccc4)ccc3n2)CC1	-14%	.
1%	1.1%	COC(=O)CNC(=O)C1CCN(S(=O)(=O)c2cnc[nH]2)CC1	-12%	.
.	4.9%	Cc1ccc(CN2CC(C(=O)N(Cc3nnc(-c4ccccc4Cl)o3)C3CC3)CC2=O)cc1 (centres undefined)	3%	.
.	?	S=C(NN=C(c1ccccc1)c1ccccn1)N(Cc1ccccn1)Cc1ccccn1	-16%	.
.	3.1%	COc1ccc(C2=NOC(c3nnc(-c4ccccc4)o3)C2)cc1 (centres undefined)	-12%	.
-1%	0.2%	COc1cc(/C=C(\C#N)C(=O)NCC2CCCO2)cc(OC)c1OC (centres undefined)	2%	0
1%	0.5%	COc1ccccc1CNS(=O)(=O)c1ccc(-n2cccn2)cc1	1%	.
0%	-1.6%	C=CCn1c(SCC(=O)N2CCCCC2)nnc1-c1ccncc1	14%	0
0%	0.6%	COc1ccc(OC)c(CN2CCN(C(=O)c3ccc(F)cc3)CC2)c1	7%	.
4%	-0.1%	COCCCNC(=O)c1cc(Sc2nnc(C)s2)nc2ccccc12	8%	-13
